PK Bst – modulators of Bacillus stearothermophilus pyruvate kinase; partly purified Bacillus stearothermophilus pyruvate kinase, luminescence ATP production; ribose 5-phosphate activator present at AC10; Potency, µM; hit rate 1.2% among 51,000; in the data active means potency below about 11 µM; inconclusive means mostly about 12 µM to 25 µM; inactive means weaker than that;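 the screen sought inhibitors and activators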;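 note: potency is the fitted concentration of half-maximal effect; scaled between full activation by ribose 5 phosphate and full inhibition by luteolin; about four in five hits inhibit and the cells do not say which; series up to 57 µM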
TsaE inh – inhibitors of E. coli YjeE (TsaE) | purified YjeE, fluorescence polarisation of a bound ADP probe | Potency, µM | hit rate 0.05% among 71,000 | AID 605; active = well fitted falling curve; inconclusive = weaker or top-dose-only fall, or a rising curve; inactive = flat or poorly fitted curve;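 note: top concentration of the series not given in the record; excess ADP was the control for the full effect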
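Fluorescence polarization of a BODIPY Texas Red–ADP probe (2 uM) bound to purified YjeE (10 uM) was read after 15 min room-temperature incubation with compounds. Loss of polarization marks inhibitors; ADP serves as titrated control.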
* hit, by the source's call; i = inactive; ? = inconclusive; . = no result given. These rows are one share of the data. The share of hits here may be higher or lower than overall.

SMILES | PK Bst | TsaE inh
COc1cc(C(=O)NCc2nnc(SCC(=O)NCc3ccccc3)o2)cc(OC)c1OC | >57 | i
CC(OCc1ccccc1)C(NC(=O)OC(C)(C)C)C(=O)NCC1CCCO1 (centres undefined) | >57 | i
COc1ccc(-c2nc3cnc(N4CCN(C)CC4)nc3n(C3CC3)c2=O)cc1 | . | i
N#C/C(=C(/O)COC(=O)Cc1c[nH]c2ccccc12)c1nc2ccccc2[nH]1 | . | i
CC1CCCC(C)N1c1nnc(N)s1 (centres undefined) | . | i
CCCCn1c(-c2cc(Cl)ccc2OC)n[nH]c1=S | >57 | i
COC(=O)c1cc(C)sc1NC(=O)c1cccnc1 | >57 | i
CCCCC(=O)Nc1ccc(C(=O)NCCCn2ccnc2)cc1 | >57 | i
COc1ccc(CNC(=O)COc2ccc(S(=O)(=O)NC(C)C)cc2)cc1 | >57 | i
Fc1ccc2nc(N3CCCCC3)sc2c1 | i | i
CC(C)NC(=O)NC(=O)COc1ncnc2sccc12 | >57 | i
Cc1ccc(S(=O)(=O)Nc2ccc(NC(=O)CN3CCCCC3)cc2)cc1 | ? | i
COc1ccc(C)cc1N(C(=O)CNC(=O)c1ccco1)C(C(=O)NC1CCCC1)c1cccnc1 (centres undefined) | >57 | i
COc1ccc(NC(=O)Nc2ccc(C(=O)N3CCOCC3)cc2)cc1 | >57 | i
O=C(O)C1CCCN(C(=O)NCc2ccccc2)C1 (centres undefined) | >57 | i
Cc1cc(C(=O)Nc2cccc(O)c2)c(C)o1 | >57 | i
CC(C(=O)Nc1nc2ccccc2[nH]1)N1C(=O)C2CC=CCC2C1=O (centres undefined) | >57 | i
CCOC(=O)c1[nH]c(C)c(C(=O)N2CCN(c3cccc(Cl)c3)CC2)c1C | >57 | i
COc1cccc(OCCn2cc(C(=O)c3ccco3)c3ccccc32)c1 | >57 | i
CC(Sc1nc(N(C)C)nc(N2CCOCC2)n1)C(=O)Nc1ccccc1 (centres undefined) | >57 | i
CN(c1ccccc1C(=O)Nc1cccnc1)S(C)(=O)=O | >57 | i
O=C(CSc1nc2ccccc2c(=O)n1NC(=O)Cc1ccccc1)NCc1ccco1 | >57 | i
COc1cccc(Nc2ncc3nc(-c4cc(F)cc(F)c4)c(=O)n(C[C@H]4CCCO4)c3n2)c1 | . | i
CCOC(=O)CNc1c(-c2ccc(Cl)cc2)nc2cnccn12 | . | i
O=C(CCCN1C(=O)c2ccccc2C1=O)Nc1ccccc1C(=O)N1CCOCC1 | . | i
CCOCCc1nnc(NC(=O)c2cccc(F)c2)s1 | >57 | i
Cn1c(SCC(=O)NCc2ccc3c(c2)OCO3)nnc1C1COc2ccccc2O1 (centres undefined) | >57 | i
O=C(Nc1cccc(NC(=O)c2ccc(-c3cccc(Br)c3)o2)c1)c1ccco1 | >57 | i
Cc1ccc(-c2cc(-c3ccc4c(c3)OCO4)c(C#N)c(N)n2)o1 | >57 | i
CCOC(=O)N1CCN(c2cc(=O)n(-c3cccc(Br)c3)c(=O)[nH]2)CC1 | . | i
Cc1cc(Nc2cccc(F)c2)n2nc(C)nc2n1 | . | i
COC(=O)c1ccc2c(=O)n(C3CCCCC3)c(SCC#N)nc2c1 | >57 | i
Cc1ccc(C(=O)OCC(=O)N2CC(=O)Nc3ccccc32)s1 | >57 | i
CCn1c(Cn2nnc(-c3ccccc3)n2)nnc1SCC(=O)Nc1cccc(C)c1C | >57 | i
CCC(C)[C@@H](C(=O)Nc1ccc2c(c1)OCO2)N1Cc2ccccc2C1=O (some centres undefined) | . | i
CCCN(CCC)CCCNC(=O)c1ccc2c(c1)N(CC)C(=O)c1ccccc1S2=O (centres undefined) | >57 | i
CC(=O)O[C@@H]1CC(C)=C2[C@H]1[C@H](C)CC[C@H]2/C=C(\C)C(=O)O | . | i
Cc1ccc(C)c(CSc2nnc(-c3ccccn3)n2N)c1 | >57 | i
CCCCN(Cc1cc2cc(OC)ccc2[nH]c1=O)C(=O)c1ccco1 | >57 | i
OC1(c2ccc(F)cc2)CCN(Cc2nnnn2Cc2cccs2)CC1 | >57 | i
COc1cccc(-n2c(SCC(=O)NCCC3=CCCCC3)nc3n[nH]c(C)c3c2=N)c1 | >57 | i
CCOC1CCCCC1NS(=O)(=O)c1ccc(Cl)cc1 (centres undefined) | . | i
O=C(c1cnccn1)N1CCC2(CC1)CN(Cc1ccccc1)C2 | . | i
CC1SC(=NC(=O)c2ccco2)NC1=O (centres undefined) | . | i
COCCn1c(=O)c(-c2cccc(C#N)c2)nc2cnc(Oc3ccccc3)nc21 | . | i
Cc1ccccc1CCNC(=O)C1CCN(S(=O)(=O)c2ccc(-n3cnnn3)cc2)CC1 | >57 | i
CSc1nsc(SCC(=O)Nc2c(C)n(C)n(-c3ccccc3)c2=O)n1 | >57 | i
CCOc1ccc(NC(=O)C2CCN(S(=O)(=O)c3c(C)n[nH]c3C)CC2)cc1 | >57 | i
Cc1cc(C)c2cc(CN(Cc3cccs3)Cc3nnnn3CC3CCCO3)c(=O)[nH]c2c1 (centres undefined) | >57 | i
O=C(c1ccccc1)c1ccc(Oc2ncccn2)cc1 | >57 | i
CCOC(=O)C(Cc1c(F)cccc1F)(NC(C)=O)C(=O)OCC | . | i
Cc1ccc(NC(=O)CSc2nnc(CNC(=O)c3c(F)cccc3Cl)o2)cc1 | >57 | i
CC[C@H](c1ccccc1)c1cc(C(C)(C)C)cc(C(C)(C)C)c1O | . | i
CC(=O)N1CC=CC1(CC(C)C)C(=O)NCc1cc(F)cc(C(F)(F)F)c1 (centres undefined) | . | i
Cc1cc(C)nc(NS(=O)(=O)c2ccc(NC(=O)c3ccco3)cc2)n1 | . | i
COc1cc(CCC(=O)OCC(=O)Nc2ncc(Cl)cc2Cl)cc(OC)c1OC | >57 | i
CC1CN(C(=O)c2cccc(C(=O)N3CC(C)OC(C)C3)c2)CC(C)O1 (centres undefined) | >57 | i
CCCCN(CCCC)CCNC(=O)Cc1nc2c(c(=O)[nH]c(=O)n2C)n1C | >57 | i
CCn1c2ccccc2c2nnc(SCC(=O)Nc3cc(C)on3)nc21 | >57 | i
CCOc1ccc(C(=O)CCNC(Cc2cnc[nH]2)C(=O)O)cc1 (centres undefined) | . | i
The listing continues.
SMILES | PK Bst | TsaE inh
CCc1c(C)[nH]c2ccc(C)cc2c1=O | . | i
O=C(NC1C=CS(=O)(=O)C1)c1sc2ccccc2c1Cl (centres undefined) | >57 | i
CCOC(=O)c1cc2sc(C)cc2n1CC(=O)Nc1ccc2c(c1)OCCO2 | >57 | i
COc1ccc(-n2c(=O)c(-c3cccs3)nc3cnc(OC)nc32)cc1 | . | i
CCOC(=O)c1cnc(SC2CCc3ccccc3C2=O)nc1N (centres undefined) | . | i
COC(=O)c1ccc(CSc2nc3ccccc3c(=O)n2Cc2ccco2)o1 | >57 | i
CCCn1c(=O)c(C(=O)NCc2ccc(OC)c(OC)c2)c(O)c2ccccc21 | >57 | i
CC1Cc2nc(SCC(N)=O)n(Cc3ccccc3)c(=O)c2S1 (centres undefined) | . | i
CCN(CC)S(=O)(=O)c1ccc(NCc2ccccc2)nc1 | >57 | i
CC(=O)OCCn1c(Br)nc2c1c(=O)[nH]c(=O)n2C | >57 | i
COC(=O)c1cc(=O)[nH]c(=O)[nH]1 | . | i
COc1cc(OC)cc(C(=O)N2CCN(Cc3ccccc3C(F)(F)F)CC2)c1 | . | i

Fetched by structure from the list above:
SMILES | PK Bst | TsaE inh
CCCN(CCC)CCCNC(=O)c1ccc2c(c1)N(CC)C(=O)c1ccccc1S2=O (centres undefined) | >57 | i
COc1cc(OC)cc(C(=O)N2CCN(Cc3ccccc3C(F)(F)F)CC2)c1 | . | i

More compounds follow:
SMILES | PK Bst | TsaE inh
Cc1ccc(-n2nnc3c(=O)n(CC(=O)N4CCC(C)CC4)cnc32)cc1 | >57 | i
CCCCCSc1nc(N2CCOCC2)c2c(c1C#N)CC(C)(C)OC2 | >25.6 | .
O=C1CC(c2ccc(F)cc2)CC(O)=C1C=NCCN1CCN(C(=O)Nc2ccccc2)CC1 (centres undefined) | >57 | i
COc1cccc(-c2nnc3sc(-c4cccs4)nn23)c1 | ? | .
Cc1[nH]c2ccccc2c1CCC(N)=O | . | i
CCCCOc1ccc(CSc2nncn2N)cc1 | . | i
COc1ccccc1N1CCN(Cc2ccco2)CC1 | >57 | i
S=c1[nH]nc(-c2ccncc2)n1CC1CCCO1 (centres undefined) | >57 | i
CCNC(=O)N1CCNC(=O)C1CC(=O)Nc1ccc(C(=O)OCC)cc1 (centres undefined) | >57 | i
CCOC(=O)/C=C/S(=O)(=O)c1ccc(NC(C)=O)cc1 | . | i
Cc1ccco1 | . | i
COc1ccc(N2C(=O)C3CC(C)=C(C)CC3C2=O)c(OC)c1 (centres undefined) | >57 | i
Cc1ccc2c(c1)nc(NCCO)n2C | >57 | i
CCn1cnc2c1c(=O)n(CC(=O)Nc1cc(C)on1)c(=O)n2Cc1ccccc1 | >57 | i
CN1C(=O)CS(=O)c2ccc(C(=O)NCCC3=CCCCC3)cc21 (centres undefined) | . | i
COc1cc2c(cc1OC)C(C(=O)N1CCN(c3ccccn3)CC1)C(c1cccs1)N(C)C2=O (centres undefined) | >57 | i
COc1ccccc1-c1nnc(SCC(=O)NCc2c(C)c(Cl)cc(C(C)C)c2O)o1 | >57 | i
CCOC(=O)CCCCC(=O)c1[nH]c(=O)[nH]c1CSc1nc(C)cc(C)n1 | . | i
Cc1onc(-c2c(Cl)cccc2Cl)c1C(=O)N[C@H]1C(=O)N2[C@H]1SC(C)(C)[C@H]2C(=O)O | . | i
CCCn1c(CN2CCCCC2C)nc2c1c(=O)n(C)c(=O)n2C (centres undefined) | . | i
Nc1nnc(N2CCCCC2)s1 | >57 | i
CCOc1ccccc1NC(=O)NC1(C(=O)N2CCOCC2)CCCCC1 | >57 | i
COc1ccc(NC(=O)CSc2nnc(-c3cccs3)n2-c2ccccc2)cc1 | >57 | i
CN(C)/C=C1\N=C(c2cccs2)OC1=O | >25.6 | .
CN(C)Cc1cc(O)c(O)c(CN(C)C)c1 | . | i
O=C(Nc1cnn(Cc2ccc(Cl)cc2)c1)c1cnccn1 | >57 | i
CC1CCCCN1CCNC(=O)CC1Oc2ccccc2NC1=O (centres undefined) | . | i
COC(=O)NCc1cccc(CNC(=O)OC)c1 | >57 | i
COCCCNC(=O)C(C#N)c1nc2ccccc2nc1N1CCCC1 (centres undefined) | >25.6 | .
CC(C)C1Cc2c(C#N)c(N)sc(=S)c2CO1 (centres undefined) | >25.6 | .
COc1ccc(S(=O)(=O)Nc2cc(C)c(O)c(S(=O)(=O)c3ccccc3)c2)cc1 | >57 | i
CC(=O)c1cnc2cc(-c3ccccc3)nn2c1C | . | i
O=C(OCCOCCN=C1NS(=O)(=O)c2ccccc21)C1CC(=O)N(c2ccccc2)C1 (centres undefined) | . | i
CCOc1cc(C2NC(=O)NC(O)(C(F)(F)F)C2C(=O)c2ccccc2)ccc1OC (centres undefined) | . | i
C=CCc1ccc(OCC(O)CN2CCCCC2C)c(OC)c1 (centres undefined) | >57 | i
CCn1cc(C(=O)NCCCN(C)C)c(=O)c2cc(F)c(N3CCN(C)CC3)cc21 | >25.6 | .
CCC(C)(C(=O)NC1CCCCC1)N(C)C(=O)c1ccccn1 (centres undefined) | >57 | i
CC(C)CNS(=O)(=O)c1ccc(CCC(=O)N2CCOCC2)cc1 | >57 | i
Cn1ncc(C#N)c1NC(=O)c1nn2cccnc2c1Cl | >57 | i
CCOc1ccc(NC(=O)CCC(=O)n2nc(C)cc2C)cc1 | >57 | i
COc1ccc(OC)c(NC2=NC3(CCCCC3)N=C(N)N2)c1 | >57 | i
CCN1CCN(c2ncnc3c2nnn3Cc2ccccc2)CC1 | >57 | i
Clc1ccccc1-c1nn2c(COc3ccccc3)nnc2s1 | >57 | i
Nc1nc(SCC(=O)c2ccc(Br)cc2)c2[nH]cnc2n1 | . | i
O=C(NCc1ccccn1)c1ccc2ccccc2n1 | . | i
O=S1(=O)c2cccc3cccc(c23)N1Cc1nnc(-c2ccccc2Br)o1 | 2.07* | i
COc1ccc(C(=O)NCc2nnc(SCC(=O)Nc3cc(C)cc(C)c3)o2)cc1OC | >57 | i
Cc1noc(C(=O)Nc2c(C)n(C)n(-c3ccccc3)c2=O)c1Cl | . | i
COC(=O)CC[C@@H](C(=O)O)N1C(=O)c2ccccc2C1=O | >57 | i

Molecules above with a Cl atom (13):
SMILES | PK Bst | TsaE inh
CCCCn1c(-c2cc(Cl)ccc2OC)n[nH]c1=S | >57 | i
CCOC(=O)c1[nH]c(C)c(C(=O)N2CCN(c3cccc(Cl)c3)CC2)c1C | >57 | i
CCOC(=O)CNc1c(-c2ccc(Cl)cc2)nc2cnccn12 | . | i
CCOC1CCCCC1NS(=O)(=O)c1ccc(Cl)cc1 (centres undefined) | . | i
Cc1ccc(NC(=O)CSc2nnc(CNC(=O)c3c(F)cccc3Cl)o2)cc1 | >57 | i
COc1cc(CCC(=O)OCC(=O)Nc2ncc(Cl)cc2Cl)cc(OC)c1OC | >57 | i
O=C(NC1C=CS(=O)(=O)C1)c1sc2ccccc2c1Cl (centres undefined) | >57 | i
COc1ccccc1-c1nnc(SCC(=O)NCc2c(C)c(Cl)cc(C(C)C)c2O)o1 | >57 | i
Cc1onc(-c2c(Cl)cccc2Cl)c1C(=O)N[C@H]1C(=O)N2[C@H]1SC(C)(C)[C@H]2C(=O)O | . | i
O=C(Nc1cnn(Cc2ccc(Cl)cc2)c1)c1cnccn1 | >57 | i
Cn1ncc(C#N)c1NC(=O)c1nn2cccnc2c1Cl | >57 | i
Clc1ccccc1-c1nn2c(COc3ccccc3)nnc2s1 | >57 | i
Cc1noc(C(=O)Nc2c(C)n(C)n(-c3ccccc3)c2=O)c1Cl | . | i
